hNpr1 antagonist: human Npr1 receptor antagonism | P16066 | 76,000 tested, 1.6% active | Potency, µM (doses to about 46.3 µM), without a hit: top-dose activity change, negative = inhibition, most hits filed as inhibitors | HEK293 hNpr1 GloSensor cGMP, ANP-stimulated luminescence; active = well fitted inhibition curve with a large enough effect; inconclusive = small, poorly fitted or top-dose-only effect; inactive = no such curve, though single readings can be large or run the other way;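 further: nearly all actives have a fitted effect of over 60% in size; nearly all hits also lower the signal before the agonist is added; a reference antagonist and vehicle were the controls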
Target sequence (P16066 whole entry, looked up): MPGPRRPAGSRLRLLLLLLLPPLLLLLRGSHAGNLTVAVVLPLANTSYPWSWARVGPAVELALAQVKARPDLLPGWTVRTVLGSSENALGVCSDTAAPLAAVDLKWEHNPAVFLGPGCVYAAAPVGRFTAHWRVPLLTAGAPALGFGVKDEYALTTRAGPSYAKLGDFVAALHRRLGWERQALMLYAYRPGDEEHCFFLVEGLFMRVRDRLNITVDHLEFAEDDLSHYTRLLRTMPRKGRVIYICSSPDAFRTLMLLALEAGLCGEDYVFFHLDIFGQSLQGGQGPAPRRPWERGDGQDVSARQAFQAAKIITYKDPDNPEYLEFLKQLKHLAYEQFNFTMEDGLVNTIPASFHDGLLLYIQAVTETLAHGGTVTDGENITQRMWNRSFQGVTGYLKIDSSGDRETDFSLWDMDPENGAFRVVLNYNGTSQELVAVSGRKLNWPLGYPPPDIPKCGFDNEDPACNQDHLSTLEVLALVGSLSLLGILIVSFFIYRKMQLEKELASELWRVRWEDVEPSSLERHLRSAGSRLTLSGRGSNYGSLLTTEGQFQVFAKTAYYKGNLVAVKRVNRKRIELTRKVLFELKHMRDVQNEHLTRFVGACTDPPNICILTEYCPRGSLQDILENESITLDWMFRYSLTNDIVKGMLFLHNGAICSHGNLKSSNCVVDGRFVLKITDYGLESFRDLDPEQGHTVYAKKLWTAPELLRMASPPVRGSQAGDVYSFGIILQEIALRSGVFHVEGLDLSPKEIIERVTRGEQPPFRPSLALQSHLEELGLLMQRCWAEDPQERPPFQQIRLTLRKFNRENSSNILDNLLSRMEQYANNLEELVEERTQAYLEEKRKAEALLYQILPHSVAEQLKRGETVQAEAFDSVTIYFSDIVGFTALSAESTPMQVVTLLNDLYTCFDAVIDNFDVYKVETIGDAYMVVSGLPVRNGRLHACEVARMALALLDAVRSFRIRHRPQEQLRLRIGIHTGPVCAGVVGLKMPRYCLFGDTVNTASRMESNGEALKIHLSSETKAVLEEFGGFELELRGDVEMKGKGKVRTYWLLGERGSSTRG
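Compound pre-incubated 30 min at room temperature on GloSensor-loaded HEK293 cells stably carrying hNpr1 and the pGS-40F cGMP biosensor. Stimulation uses hNppA at 0.1 nM final; luminescence is taken at baseline and 20 min post-agonist.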
* marks the source's active call; other numbers are inactive results; ? = inconclusive; [ ] = another dose, or the depositor's remark. On the % scale 0 is the no-effect control and ±100 the full control effect; potency means the concentration at half of the fitted maximal effect. Some of the compounds tested. The share of hits here may be higher or lower than overall.

canonical_smiles	hNpr1 antagonist
Cc1nnc(NC(=O)C2c3ccccc3C(=O)N(Cc3ccccc3)C23CCCC3)s1 (configuration not stated)	1%
CCOc1ccccc1C(=O)N1CCC(N2CC3CC(C2)[C@H]2CCCC(=O)N2C3)CC1 (some centres not stated)	-3%
CC(C)n1c(CCNC(=O)CC[C@H]2NC(=O)c3ccccc3NC2=O)nc2ccccc21	-5%
O=C(CCc1nc2ccccc2s1)NCC1Cn2cccc2CN1Cc1ccccc1 (configuration not stated)	-7%
Cc1ncoc1C(=O)N1CCCCCCn2c(nnc2-c2ccc(F)cc2)CC1	-1%
O=C(Nc1cccc(F)c1)N1CCCC(c2nn[nH]n2)C1 (configuration not stated)	-2%
O=c1c2nc(OCc3ccc(-n4cccn4)cc3)ccc2ncn1Cc1ccccc1	?
CCNC(=O)Nc1ccc(OCC(=O)N2CCC(C)CC2)nc1	5%
Cc1ccc(-c2cc3c(=O)n(CCNC(=O)Cc4ccsc4)ccn3n2)cc1C	-16%
O=C(c1cccc(Cl)c1)N1CCC2(CC1)CC(=O)N(c1ccccc1)c1ccccc1O2	-8%
COc1cccc(CN2C(=O)OC3(CCN(Cc4ccccc4OC)CC3)C2(C)c2cccnc2)c1 (configuration not stated)	0%
O=C(O)c1ccccc1C(=O)N[C@H]1CO[C@H]2[C@@H]1OC[C@@H]2n1nnnc1-c1ccc2c(c1)OCO2	4%
CCOc1ccc(CC(=O)N2C[C@@H](COC)[C@H](C(N)=O)C2)cc1	-4%
COc1ccccc1-c1onc(C)c1C(=O)NCCc1ccc(F)cc1	2%
COCCc1nncn1C1CCN(S(=O)(=O)c2cc(F)cc(F)c2)CC1	0%
COc1ccc(C(=O)NCC(=O)N2CCCCCCNC(=O)CC2c2ccccc2)c(OC)n1 (configuration not stated)	-3%
O=C(CCCc1cccs1)N1CCC2(CC1)[C@H](O)C[C@@H]2OCCO	-6%
COc1ccc2c(c1)OCC(C(=O)NCc1nnnn1-c1ccccc1)C2 (configuration not stated)	3%
NC(=O)CO[C@@H]1CO[C@H]2[C@@H]1OC[C@@H]2NC(=O)C1CCCCC1	1%[70.6 µM]
COc1ccccc1N1CCN(C(=O)CCc2conc2-c2ccc(C)cc2)CC1	-4%
COc1ccccc1NC(=O)Nc1ccnn1C1CCN(C(=O)CCN)CC1	1%
CC(C)Cc1ccc(S(=O)(=O)N(C)CC2CCOC2)cc1 (configuration not stated)	?
Cc1nn2c(c1-c1ccccc1C(C)C)N(C(=O)c1cccc(C#N)c1)CCC2	5%[70.6 µM]
Cc1ccccc1-c1onc(C)c1C(=O)NCc1cccc(F)c1F	7%
CC(=O)c1cc(CN2CCCC(C(=O)c3cccc(OC(C)C)c3)C2)cs1 (configuration not stated)	-25%
CSc1ccc(CNC(=O)C2CCN(C(=O)c3ncn4c3COC(c3ccccc3)C4)CC2)cc1 (configuration not stated)	-19%
CCC(Cn1ccnc1)NC(=O)c1cccc(NCc2ccc(F)cc2)c1 (configuration not stated)	-2%
Cc1ccccc1-n1nc(C)c(CCC(=O)N2CCSCC2)c1Oc1ccccc1F	-19%
CN1CCN(c2ccc(-c3cc4c(ccn4C)c(C(=O)NCCC(N)=O)n3)cc2)CC1	-3%[70.6 µM]
CN1C(=O)[C@H]2CN(Cc3ccc(Cl)c(F)c3)C[C@H]2C1=O	-1%

Next part.
canonical_smiles	hNpr1 antagonist
COCC(=O)N1CCC2(CCN(Cc3cccc(C)n3)CC2)C(CO)C1 (configuration not stated)	7%
Cc1cc2cc(C(=O)N3CCC4(CC3)C(=O)N(C)c3ccccc34)ccc2o1	-1%
Cc1cc(C)cc(C(=O)NCCn2cccc2-c2nc(-c3ccc4c(c3)OCO4)no2)c1	-14%
O=C(NC[C@H]1OC[C@@H](N(Cc2ccccn2)Cc2ccccn2)[C@@H]1O)C1CCCC1	-2%[70.6 µM]
Cc1oc2ccn(Cc3cccc(F)c3)c(=O)c2c1C(=O)N(C)Cc1ccccc1	-3%
CC(C)NC(=O)C1CC(=O)N(c2n[nH]c3ccccc23)C1 (configuration not stated)	2%
Cc1ccc(-c2nc(C(=O)N3CCN(c4ccccc4)CC3)no2)cc1	-2%
COc1ccc(CN[C@@H]2CCC[C@@H](C(=O)N(C)Cc3cccnc3)CC(=O)N(C)C2)cc1	5%
COc1ccccc1N1CCN([C@H]2[C@@H]3OC[C@@H](O3)[C@@H](NCc3ccc(F)cc3)[C@@H]2O)CC1	1%
CCCCCNC(=O)Cc1csc2nc(C)c(-c3cc(C)n(-c4cc(Cl)ccc4C)n3)c(=O)n12	-15%
COCc1cc(C[C@H]2CNCC[C@H]2CC(=O)N2CCc3cc(OC)c(OC)cc3C2)no1	12%
Cc1cnn(C2(C(=O)O)CCN(C(=O)CCc3cnn(C)c3)CC2)c1	0%
Cc1cccc(CC(=O)N2CCC3(CC2)CC(OCC2CC2)CCO3)c1 (configuration not stated)	9%
CC1=C[C@@H](CNC(C)C)[C@H](C(C)C)C[C@H]1Cc1nnc(-c2ccc([N+](=O)[O-])cc2)o1	-13%[70.6 µM]
O=C1NC(=O)C(CCC(=O)N2CCCN(Cc3ccccn3)CC2)N1 (configuration not stated)	-1%
CS(=O)(=O)c1ccc(CN2Cc3[nH]cnc3C[C@H]2C(=O)NCc2ccc(C(F)(F)F)cc2)cc1	4%
CS(=O)(=O)c1ccc(CN2CCN3C(=O)N(c4ccccc4)C[C@H]3C2)cc1	-1%[70.6 µM]
Cc1nnc([C@@H]2CC(F)(F)CN2C(=O)c2ccc3ccccc3n2)o1	-8%
Cc1noc(C)c1-c1cc2c(cc(C)n2C)c(NCCN(C)C)n1	-2%[70.6 µM]
Clc1ccccc1C1Cn2cnc(-c3nc(-c4cccnc4)no3)c2CO1 (configuration not stated)	1%
CCOc1cc(C(=O)NC2CCN(c3cc(-c4ccc(F)cc4)[nH]n3)C2)cc(OCC)c1OCC (configuration not stated)	1%
COc1cccc(CN2C[C@@H](CO)[C@H](C(=O)NC3CC3)C2)c1OC	9%
CC(C)[C@@H](N)C(=O)N1CCC(n2nccc2NC(=O)c2ccccc2)CC1	2%
CCc1noc(-c2cn(C3CCN(C(=O)c4ccc(C)cc4C)C3)nn2)n1 (configuration not stated)	?
COc1ccc(Cc2nc3nccc(-c4ccc(OC)cc4F)n3n2)cc1	1%
Cc1ccc(C(C(=O)N2CC(n3nc(C)cc3C)C2)N(C)C)cc1 (configuration not stated)	-13%
CCCS(=O)(=O)N1CCCC(Cn2c(C3CC3)nc3cccnc32)C1 (configuration not stated)	-2%
COc1ccc(C2Cn3nnc(C(=O)N4CCC(C(=O)NCCc5cccs5)CC4)c3CO2)cc1 (configuration not stated)	1%
O=C1[C@@H]2C[C@@H](CN2C(=O)c2cncnc2)Oc2ccccc2N1Cc1ccccc1	2%[70.6 µM]
CCn1ncc(N2CCCC(CC(=O)NCCc3ccccn3)C2)cc1=O (configuration not stated)	0%

Continuation:
canonical_smiles	hNpr1 antagonist
COCCNC(=O)c1ccc2c(c1)NC(C)(COc1ccc(OC)cc1)CO2 (configuration not stated)	-19%[70.6 µM]
Cc1cn2cc(C(=O)N3CCCCC3c3ccc(F)cc3)ccc2n1 (configuration not stated)	4%
CCCN(C)C(=O)c1ccc(-c2nnc3ccc(NC(=O)C4CCC4)cn23)cc1	-3%
CNC(=O)[C@@H]1C[C@H](Oc2ccccc2)CN1C(=O)c1cnccn1	-1%
Cc1c(C(=O)N(C)Cc2cc(-c3cccnc3)no2)oc2c(F)cccc12	?
O=C(CC1CCOCC1)NCc1cccnc1	2%
COc1ccc2[nH]c3c(c2c1)CCNC31CCN(C(=O)c2cn(C)cn2)CC1	4%
COCC(=O)NC[C@H]1O[C@@H](CC(=O)N2CCN(c3ccccc3OC)CC2)[C@H](O)[C@@H]1O	-1%
CC(C)N1C(=O)C(CC(=O)O)=C2CCCCC21 (configuration not stated)	1%
O=C(CC(F)(F)F)NCCc1noc(C2CC2)n1	4%
O=C([C@@H]1C[C@H](F)CN1C(=O)CCCc1ccccc1)N1CCCCC1	-7%
Clc1ccc(-c2cnc3n2C[C@H](CNC2CCCC2)OC3)cc1	-10%[70.6 µM]
CCC(CC)C(=O)N1CC(C(=O)N(C)C)C2(CCOCC2)C1 (configuration not stated)	-2%
Cc1cn2nc(C(=O)N3CCC(C(=O)Nc4ccccc4)CC3)cc2c(=O)[nH]1	4%
Cc1ccccc1C(=O)N[C@H]1[C@H](O)[C@H](O)C[C@@H]1c1ccc(N2CCOCC2)nc1	-3%[70.6 µM]
CN(C)Cc1nnc(C2CCCN(C(=O)C3(N)CCNCC3)C2)n1C (configuration not stated)	5%
COc1ccccc1NC(=O)COc1cccc(-c2nnc3n2CCCC3)c1	2%
CCNC(=O)N1CCc2cc(OC)c(OC)cc2C1CNC(=O)c1ccccc1C (configuration not stated)	7%
O=S(=O)(c1ccc(F)cc1)N1CCCC(CN2CCCC2)CC1 (configuration not stated)	-1%
CCCCc1ncc(-c2nccn2Cc2noc(CC(C)C)n2)[nH]1	0%
CCOc1cc(C(=O)N2CCC[C@H]2c2nc(-c3ccc(OC)cc3)no2)cc(OCC)c1OCC	-17%
COc1cccc(CN2CCc3c(cc(C(=O)N4CCN(CC(C)C)CC4)n3C)C2)c1	2%
CC(C)CCC(=O)N1CCN(c2nc3c(s2)CN(C)CC3)CC1	3%
Cc1nn(-c2ccccc2)nc1C(=O)N[C@H](C)c1onc(-c2cccnc2)c1C(=O)O	0%
Cc1cccnc1CN1CCN(CC2(O)CCNC2)CC1 (configuration not stated)	0%
Cc1cc(C(=O)N2CCOC[C@H](Oc3cnccn3)C2)c(C(F)(F)F)o1	-2%[70.6 µM]
COCCC(=O)N1C[C@@H]2CCCN3CCC[C@@H]([C@H]23)[C@H]1CCCC(=O)N1CCOCC1	5%
CCCNC(=O)C(NC(=O)c1cccc(OC)c1)C1CCN(C(=O)c2cccc(OC)c2)CC1 (configuration not stated)	3%
Cc1cc(C)cc(NC(=O)N2CCCC(Cn3c(C)nc4cccnc43)C2)c1 (configuration not stated)	-3%
O=C(NCc1ccncc1)C1CCN(C(=O)c2ncn3c2COC(c2ccc(F)cc2)C3)CC1 (configuration not stated)	1%

Next part.
canonical_smiles	hNpr1 antagonist
COCc1cc(C[C@@H]2C[C@H](NCc3ccccc3O)C2(C)C)no1	5%[70.6 µM]
COc1ccc(-c2[nH]nc3ncc(-c4cccc(N(C)C)c4)nc23)c(C)c1	3%[70.6 µM]
O=C(c1c(OCC2CC2)cc(=O)n2c1CCOCC2)N1CCCCCC1	-3%
COc1ccc2[nH]c3c(c2c1)CCNC31CCN(C(=O)c2ccco2)CC1	0%
COCC1CN(C2CCC2)CC12CCN(C(=O)C1CCC1)CC2 (configuration not stated)	-16%
CSc1cccc(NC(=O)C2CCN(C(=O)c3ncn4c3COC(c3ccc(F)cc3)C4)CC2)c1 (configuration not stated)	?
CCOc1ccc2c(n1)CCN(C(=O)Nc1cc(C)ccc1C)C2	0%
Cc1ncc(CN2CCC(C3(c4cccnc4)NC(=O)NC3=O)CC2)[nH]1 (configuration not stated)	7%
COCC1CN(Cc2ccc(Cl)cc2)CC12CCNCC2 (configuration not stated)	-9%
O=C(Cc1ccccc1)N1CCNc2cnc(Nc3ccccc3)nc2C1	?
Cc1ccc(-c2ncc(C(=O)Nc3ccc(F)c(F)c3)c(-c3ccncc3)n2)cc1	-22%
CC1(C)C(=O)N(Cc2ccccc2)[C@H]2CN(Cc3ccncc3)C[C@H]2[S+]1(=O)[O-]	4%[70.6 µM]
O=C(CCc1c[nH]c2ccccc12)N1CC2CC(C1)[C@H]1CCCC(=O)N1C2 (some centres not stated)	3%
CC(C)CCN(C)Cc1cccn1C	0%[70.6 µM]
COc1cccc(CC(=O)N2CCC3(CC2)CC(N(C(=O)NC(C)C)C2CC2)CCO3)c1 (configuration not stated)	5%
O=C(CN1C(=O)NC2(CCCCC2)C1=O)NCCc1ccc(Cl)cc1	-5%
COc1ccc(OC)c(-c2n[nH]c3c2CC(=O)N(CCOc2ccccc2)C3)c1	-16%[70.6 µM]
C[C@]1(CO)[C@H]2Cc3sc(-c4ccsc4)nc3[C@@H](CC(=O)NCc3ccco3)[C@]2(C)CC[C@H]1O	-1%
